# Sa growth 42C: inhibitors of Staphylococcus aureus growth at 42 °C. S. aureus RN4220 growth, OD600, 20 h; hits give low values. relative growth, % (concentration not given with the values). 170,000 compounds, 0.53% hits. AID 720641;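 active means growth at 42 °C up to 50% and 20 or more points under that at 30 °C, or under 10% at both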;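 further: 300 nL library stock went into each well; scaled to the means of positive and negative controls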
# GIV-Gai inh: GIV-Galpha-i interaction inhibition; Galpha-i3/FITC-GIV peptide fluorescence polarization, 90 min; hits give low values; scaled: aluminum fluoride 0%, vehicle 100%; percent of control (FP), % (concentration not given with the values); 210,000 compounds, 0.42% hits; AID 1224905;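 active means replicate mean at 85% of control or lower, very high polarization wells dropped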;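 further: wells of about 15 µL received 100 nL stock; the first replicate is given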
# Target sequence (P08753 whole entry, looked up): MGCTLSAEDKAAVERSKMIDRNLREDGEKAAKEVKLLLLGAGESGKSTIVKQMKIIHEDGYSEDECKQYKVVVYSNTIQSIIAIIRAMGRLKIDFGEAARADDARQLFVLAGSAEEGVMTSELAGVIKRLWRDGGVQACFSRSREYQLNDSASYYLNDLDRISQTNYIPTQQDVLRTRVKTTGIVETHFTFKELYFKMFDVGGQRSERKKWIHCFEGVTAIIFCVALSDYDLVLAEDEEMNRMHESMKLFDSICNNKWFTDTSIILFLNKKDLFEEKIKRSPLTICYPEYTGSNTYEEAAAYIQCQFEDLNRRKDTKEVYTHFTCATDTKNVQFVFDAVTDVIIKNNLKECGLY
# HCMV NEC inh: cytomegalovirus nuclear egress complex inhibition. inhibition, % (no concentration beside the values). 190,000 compounds, 0.15% hits. AID 1918969. HTRF UL50-UL53 interaction, normalized percent inhibition;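 active means both replicates at 50% or more, plus weaker picks with an unusually low signal ratio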;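 further: stock transfer was 100 nL into about 20 µL; 0% = negative control wells and 100% = wells with untagged competitor protein; inactives centre near -12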
# Sa growth 42C second temp: also measured in Sa growth 42C; calls as there; relative growth, %; measured here: growth at 30 °C;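 optical density after 20 h as mean of two plates; 100% = untreated growth and lower means inhibition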
# The depositor's hits bear a star; nt = no result given; & = joins results of further samples.
# The opening two records, to show the layout:
1) COc1ccc(C2N(c3ccccc3)OC(=O)N2c2ccccc2)cc1 (centres undefined)
2) CCC(C)NC(=O)Cn1nc(-c2ccccc2)c2cc(Cl)ccc21 (centres undefined)

Screen / compound no.,1,2
Sa growth 42C,89,105
Sa growth 42C second temp,81,87
GIV-Gai inh,103,101&96
HCMV NEC inh,nt,-2&-4

# This part in full, from the first entry:
1) COc1ccc(C2N(c3ccccc3)OC(=O)N2c2ccccc2)cc1 (centres undefined)
2) CCC(C)NC(=O)Cn1nc(-c2ccccc2)c2cc(Cl)ccc21 (centres undefined)
3) COc1ccc(NC(=O)Cn2c(=O)n(-c3ccc(C)cc3)c(=O)c3c2cnn3C)cc1
4) CCC1=Nc2cccc3cccc(c23)N1
5) COc1ccc(OC)c(CCNC(=O)c2cc(C)nc3c2c(=O)n(C)c(=O)n3C)c1
6) CCN1C(=O)/C(=C2\C=Cc3ccccc3N2CC)OC1=S

Screen / compound no.,1,2,3,4,5,6
Sa growth 42C,89,105,93,87,nt,110
Sa growth 42C second temp,81,87,109,65,nt,84
GIV-Gai inh,103,101&96,100,93,100,115
HCMV NEC inh,nt,-2&-4,14,-16,-17,nt

7) COc1ccc(CCNC(=O)CC#N)cc1OC
8) CCOC(=O)CSCCOc1ccc(/C=C2/C(=O)NC(=O)N(c3ccc(OC)cc3)C2=O)cc1OC
9) O=c1[nH]c2ccsc2c(=O)n1CCO
10) O=C(NCc1noc(Cc2ccccc2)n1)c1ccccc1
11) O=C(CCCSc1nc(-c2ccco2)cc(C(F)(F)F)n1)NCC1CCCO1 (centres undefined)
12) Cc1ccc(-c2nc(CS(=O)(=O)CC(=O)N3CCc4ccccc43)c(C)o2)cc1

Screen / compound no.,7,8,9,10,11,12
Sa growth 42C,108,nt,88,nt,87,100
Sa growth 42C second temp,95,nt,86,nt,93,94
GIV-Gai inh,nt,95,102,102,109,119
HCMV NEC inh,5,-22,-39,10,-28,0

13) C#CCOc1cccc(CN(C)C(C)c2ccco2)c1 (centres undefined)
14) O=C(CCC(=O)N1CC=C(c2c[nH]c3ccccc23)CC1)NCc1ccccc1
15) O=S(=O)(Nn1cnnc1)c1ccccc1Cl
16) O=C(Cn1ncc2c3ccccc3n(Cc3ccc(Cl)cc3)c2c1=O)NCc1cccs1
17) COc1cc(C(=O)Nc2ccc3c(c2)N(C2CCCC2)C(=O)c2ccccc2S3)cc(OC)c1OC
18) O=C(COC(=O)C1CC(=O)N(Cc2ccco2)C1)c1ccc2ccccc2c1 (centres undefined)

Screen / compound no.,13,14,15,16,17,18
Sa growth 42C,92,nt,93,96,110,85
Sa growth 42C second temp,80,nt,80,85,101,77
GIV-Gai inh,99,108,100,148,104,nt
HCMV NEC inh,-9,-16,-18,-22,nt,-60

19) C#CC(CC)(CC)NC(=O)Cc1n[nH]c(=O)c2ccccc12
20) COC(=O)c1ccc(OCC2c3cc(OC)c(OC)cc3CCN2C(=O)c2ccccc2F)cc1 (centres undefined)
21) COc1ccccc1-c1noc(-c2ccc(N(C)Cc3ccccc3)c([N+](=O)[O-])c2)n1
22) CNS(=O)(=O)c1cn(CC(=O)Nc2cccc(F)c2)cc1S(=O)(=O)NC
23) CCC(C)C1NC(=O)C(CCNCS(=O)(=O)O)NC(=O)C(NC(=O)C(CCNCS(=O)(=O)O)NC(=O)C(NC(=O)C(CCNCS(=O)(=O)O)NC(=O)CCCCC(C)C)C(C)O)CCNC(=O)C(C(C)O)NC(=O)C(CCNCS(=O)(=O)O)NC(=O)C(CCNCS(=O)(=O)O)NC(=O)C(C(C)CC)NC1=O (centres undefined)
24) Cc1ccc2c(c1)N(CCCC(=O)Nc1ccc3c(c1)nc(CCc1ccccc1)n3C)C(=O)CO2

Screen / compound no.,19,20,21,22,23,24
Sa growth 42C,100,91,101,nt,100,nt
Sa growth 42C second temp,98,76,88,nt,89,nt
GIV-Gai inh,nt,101,99,108,nt,102
HCMV NEC inh,3,nt,-6,-1,-13,8

25) N#Cc1ccc(NC(=O)CCC2CCCC2)cc1
26) CC1(C)CC(NC(=O)C23CCC(C)(C(=O)C2)C3(C)C)CC(C)(C)N1 (centres undefined)
27) COc1cccc(-n2cc(C(=O)Oc3cccc(C(F)(F)F)c3)c3ccccc3c2=O)c1
28) COCCOC(=O)CSc1ncn[nH]1
29) Cc1ccc(NC(=O)c2nn(C)c3c2CCc2sccc2-3)cc1F
30) CCOc1ccc(-n2cc(C(=O)NC(C)c3cccs3)nn2)cc1 (centres undefined)

Screen / compound no.,25,26,27,28,29,30
Sa growth 42C,87,100,88,nt,nt,109
Sa growth 42C second temp,75,99,100,nt,nt,78
GIV-Gai inh,99,nt,105,100,111,105
HCMV NEC inh,16,6,nt,-6,-5,-15

31) O=C(Cn1c(-c2cccs2)cc2ccccc21)N1CCN(c2ccccc2)CC1
32) CCNC(=S)N1CCN(CC)CC1
33) O=C1CSC2=NCN(c3ccccc3)CN12
34) CCOC(=O)c1cc(S(=O)(=O)Nc2cc(OC)ccc2OC)[nH]n1
35) CC(Nc1nc2ccccc2s1)C(=O)O (centres undefined)
36) O=C(NCCn1c(C(F)(F)F)nc2cccnc21)Nc1ccc(Cl)cc1

Screen / compound no.,31,32,33,34,35,36
Sa growth 42C,118,107,103,97,112,nt
Sa growth 42C second temp,99,83,89,95,89,nt
GIV-Gai inh,98,102,nt,112,nt,106
HCMV NEC inh,-2,-26,-25,nt,2,-19

37) CC(=O)Nc1nc(N(C)C)nc(N(C)C)n1
38) N#Cc1ccc(NC(=O)COCc2cc(-c3ccc(F)cc3)on2)cc1
39) CCN(CC)S(=O)(=O)c1ccc2c(c1)N(CC(=O)N1CCN(c3ccc(OC)cc3)CC1)C(=O)CO2
40) Cc1cc(C)cc(NS(=O)(=O)CC23CCC(CC2=O)C3(C)C)c1 (centres undefined)
41) COc1cc(OC)c(NC(=O)N2CCC(C)(C(=O)NCc3ccc4c(c3)OCO4)CC2)cc1Cl
42) CC1CCN(C(=O)c2cc(S(=O)(=O)N(C)CC(=O)N3CCN(c4ccccc4)CC3)c[nH]2)CC1

Screen / compound no.,37,38,39,40,41,42
Sa growth 42C,118,93,93,97,nt,nt
Sa growth 42C second temp,86,86,82,105,nt,nt
GIV-Gai inh,97,98,104,nt,103,105
HCMV NEC inh,4,-40,nt,14,8,-14

# By substructure: the entries above containing an aryl thioether with sulfur outside any ring
11) O=C(CCCSc1nc(-c2ccco2)cc(C(F)(F)F)n1)NCC1CCCO1 (centres undefined)
28) COCCOC(=O)CSc1ncn[nH]1

Screen / compound no.,11,28
Sa growth 42C,87,nt
Sa growth 42C second temp,93,nt
GIV-Gai inh,109,100
HCMV NEC inh,-28,-6

# Carrying on:
43) COc1ccc(-c2nc(C#N)c(N3CC(C)CC(C)C3)o2)cc1 (centres undefined)
44) CCCN1CCN(c2ncnc3sc(C(=O)Nc4ccc(N(CC)CC)cc4C)c(C)c23)CC1
45) Cc1cc(=O)oc2ccc(OC(=O)Cc3cccs3)cc12
46) c1ccc2[nH]c(SCCSc3nc4ccccc4[nH]3)nc2c1
47) O=C1SC(C2SC(=O)N(Cc3ccc(F)cc3)C2=O)C(=O)N1Cc1ccc(F)cc1 (centres undefined)
48) O=C(CSc1cccc2cccnc12)NCc1ccccc1

Screen / compound no.,43,44,45,46,47,48
Sa growth 42C,109,105,115,93,112,93
Sa growth 42C second temp,103,97,104,84,79,89
GIV-Gai inh,100,97,111,97,100,nt
HCMV NEC inh,-5,nt,-37,nt,nt,-5

# From compound 20 to 21, as listed above:
20) COC(=O)c1ccc(OCC2c3cc(OC)c(OC)cc3CCN2C(=O)c2ccccc2F)cc1 (centres undefined)
21) COc1ccccc1-c1noc(-c2ccc(N(C)Cc3ccccc3)c([N+](=O)[O-])c2)n1

Screen / compound no.,20,21
Sa growth 42C,91,101
Sa growth 42C second temp,76,88
GIV-Gai inh,101,99
HCMV NEC inh,nt,-6

# Further entries follow:
49) CCN1CCN(CCCNC(=O)c2ccc3c(c2)N(Cc2ccccc2)CCS3)CC1
50) CN1CCc2c(sc3c2CN(C(=O)Nc2ccc(F)cc2)C(c2ccc(Cl)cc2)c2cccn2-3)C1 (centres undefined)
51) CC(NC(=O)CC#N)c1ccccc1 (centres undefined)
52) CCn1c(CSc2ncccn2)nnc1SCC(=O)N1CCc2ccccc21
53) Clc1nnc(N/N=C/c2ccccc2)c2ccccc12
54) Cc1ccc(-n2nc(C)c(/C=N/NC(=O)Cc3csc(C)n3)c2Cl)cc1

Screen / compound no.,49,50,51,52,53,54
Sa growth 42C,99,nt,78,108,106,87
Sa growth 42C second temp,91,nt,85,109,90,84
GIV-Gai inh,101,105,nt,104,95,nt
HCMV NEC inh,6,1,-38,22,-14,-25

55) O=C(Cc1ccc(Cl)cc1)Nc1ncn[nH]1
56) Clc1ccc(-c2noc(-c3ccc(CN4CCCCC4)cc3)n2)cc1
57) O=C(O)CCNC(=O)c1ccc(NC(=O)Cc2ccc(Cl)cc2)cc1
58) Cc1cc(N=CNOC(=O)c2nn(-c3ccccc3)nc2C)no1
59) CCC(Sc1nc(Nc2ccc(F)cc2)c2ccccc2n1)C(=O)Nc1ccc2c(c1)OCO2 (centres undefined)
60) c1nc(N2CCN(Cc3ccc4c(c3)OCO4)CC2)c2ccsc2n1

Screen / compound no.,55,56,57,58,59,60
Sa growth 42C,96,nt,91,93,106,100
Sa growth 42C second temp,87,nt,90,84,82,91
GIV-Gai inh,97,105,95,108,106,nt
HCMV NEC inh,-14,29,nt,-25,nt,-14

# Of the compounds above, these contain two or more sulfur atoms:
22) CNS(=O)(=O)c1cn(CC(=O)Nc2cccc(F)c2)cc1S(=O)(=O)NC
23) CCC(C)C1NC(=O)C(CCNCS(=O)(=O)O)NC(=O)C(NC(=O)C(CCNCS(=O)(=O)O)NC(=O)C(NC(=O)C(CCNCS(=O)(=O)O)NC(=O)CCCCC(C)C)C(C)O)CCNC(=O)C(C(C)O)NC(=O)C(CCNCS(=O)(=O)O)NC(=O)C(CCNCS(=O)(=O)O)NC(=O)C(C(C)CC)NC1=O (centres undefined)
46) c1ccc2[nH]c(SCCSc3nc4ccccc4[nH]3)nc2c1
47) O=C1SC(C2SC(=O)N(Cc3ccc(F)cc3)C2=O)C(=O)N1Cc1ccc(F)cc1 (centres undefined)
52) CCn1c(CSc2ncccn2)nnc1SCC(=O)N1CCc2ccccc21

Screen / compound no.,22,23,46,47,52
Sa growth 42C,nt,100,93,112,108
Sa growth 42C second temp,nt,89,84,79,109
GIV-Gai inh,108,nt,97,100,104
HCMV NEC inh,-1,-13,nt,nt,22

# Later entries:
61) Cc1c(C(=O)N2CCN(Cc3ccccc3)CC2)sc2ncnc(N3CCOCC3)c12
62) Cc1cc(C(=O)Sc2ccccc2)nn1C(C)(C)C
63) C=CCN1CC(c2nc3ccccc3n2CC(O)COc2ccccc2C)CC1=O (centres undefined)
64) CC(NC(=O)CN1CCN(Cc2ccc(Cl)cc2)C1=O)c1ccc2c(c1)OCCO2 (centres undefined)
65) Cc1ccccc1Nc1c(-c2ccc(Br)o2)nc2ccc(Cl)cn12
66) O=C(c1cc2ccc3cccnc3c2[nH]1)N1CCN(c2ccccc2)CC1

Screen / compound no.,61,62,63,64,65,66
Sa growth 42C,nt,124,nt,106,105,108
Sa growth 42C second temp,nt,69,nt,96,99,92
GIV-Gai inh,106,101,104,104,97,100&103
HCMV NEC inh,-4,1,-3,-23,9,1

67) O=C(O)/C=C/C(=O)N1CCN(c2cc(C(F)(F)F)ccn2)CC1
68) Cc1csc2nc(COc3ccc(NC(=O)COc4ccccc4F)cc3)cc(=O)n12
69) CC(C)NC(=O)CN1CCN(c2ccc(F)cc2)CC1
70) c1cnc2nc(CN3CCCC3)cn2c1
71) Cc1cccc(N(C)C(=O)CCS(=O)(=O)c2ccc3c(c2)oc(=O)n3C)c1
72) O=C(/C=N/O)Nc1cccnc1

Screen / compound no.,67,68,69,70,71,72
Sa growth 42C,106,94,100,94,69,109
Sa growth 42C second temp,102,92,92,90,58,83
GIV-Gai inh,98,104,103,nt,106,99
HCMV NEC inh,0,-11,-2,-14,nt,8

73) O=C(Cn1c(=O)oc2ccccc21)Nc1ccc2nc3n(c(=O)c2c1)CCCCC3
74) O=C(NC1CCCCCC1)c1ccc2c(c1)sc1nc(-c3ccc(F)cc3)cn12
75) Cc1ccc(CNC(=O)c2cc(=O)[nH]c3ccc(Br)cc23)cc1
76) COc1cc(C(=O)Nc2nonc2-c2ccc(Cl)cc2)cc(OC)c1OC
77) O=C(NCc1ccc(Cl)cc1)C(=O)NCC(c1ccco1)S(=O)(=O)c1cccs1 (centres undefined)
78) CC(=O)Nc1cc(C(=O)NCCN(C)Cc2ccccc2)ccc1Sc1ccc(F)cc1
79) Cc1ccc(OCCNC(=O)c2sc(C)nc2C)cc1
80) CCOC(=O)NN=C1CC(C)(C)NC(C)(C)C1
81) O=C(CC(=O)Nc1ccc2nc3n(c(=O)c2c1)CCCCC3)Nc1ccc(F)cc1

Screen / compound no.,73,74,75,76,77,78,79,80,81
Sa growth 42C,100,71,82,92,113,86,106,84,nt
Sa growth 42C second temp,98,99,85,88,86,82,89,86,nt
GIV-Gai inh,103,109,94,98,93,105,109,97,98
HCMV NEC inh,8,nt,nt,14,nt,5,-16,-20,-5
